Bioassay records as filed in PubChem BioAssay.
HTT prom inh: Primary qHTS for Identification of Small Molecule Inhibitors of Huntingtin Promoter Activity. Potency, µM (doses to about 57.5 µM), for the others: top-dose activity change, negative = inhibition, actives largely listed as inhibitors. 0.93% of 48,000 active. HEK293 HTT promoter firefly luciferase reporter (activity 0% = vehicle and -100% = no light), 24 h; active means well fitted inhibition curve with a large enough effect; inconclusive means small, poorly fitted or top-dose-only effect; inactive means no such curve, though single readings can be large or run the other way; further: nearly all actives have a fitted effect of over 50% in size
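Firefly luciferase readout (Dual-Glo, 10 min RT) after 24 h, 37 °C compound exposure (final up to 57.5 uM) of HEK293 reporter cells cultured 24 h beforehand; PTC124 at 50 uM final as control inhibitor; activity scaled vehicle 0%, zero RLU -100%.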
PMP22 txn prim: Cell-based coincidence reporter assay to measure PMP22 gene transcription in S16 Pmp22-F2sN cells - Primary screen | AID 1508649, 2021 | S16 Pmp22-F2sN Schwann cells (luciferase reporters placed in the Pmp22 gene), FLuc/NLuc coincidence luminescence, 24 h | 2% of 43,000 active | Potency, µM (doses to about 57.5 µM), for inactives: at the top dose activity change, negative = inhibition, hits mostly inhibitors; active = clear falling dose curves in both reporters; inconclusive = both reporters move, but less clearly or upward; inactive = either reporter flat; the % is the NLuc reporter signal; further: on the % scale 0 is the no-effect control and ±100 the full control effect; some results filed as inactive show a strong effect at the top dose
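Schwann cells carrying the coincidence reporter were exposed to library compounds for 24 h at 37C, then lysed and read for FLuc and, after quenching, NLuc luminescence on a CCD imager.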
* hit, by the source's call; ? = inconclusive; / = not tested or not shown; [ ] = another dose, or the depositor's remark. Potency means the concentration at half of the fitted maximal effect.

compound,HTT prom inh,PMP22 txn prim
O=C(Cc1ccc(Cl)cc1)NCC(c1cccs1)S(=O)(=O)c1ccccc1 (centres undefined),-24%,0%
COc1ccc(Cn2c(C(=O)O)c(CNC3CCCC3)c3ccc(C)cc32)cc1,-4%,47%
Cc1ccccc1C(=O)Nc1cccc(C(=O)OCc2cc(=O)n3nc(C4CC4)sc3n2)c1,3%,-23%
COc1ccc([C@@H]2Sc3ccccc3N(CCN(C)C)C(=O)[C@@H]2OC(C)=O)cc1,-5%,/
CC(NCc1ccc2c(c1)n(C)c(=O)n2C)c1ccccc1 (centres undefined),-13%,-10%
CC(=O)c1cccc(NS(=O)(=O)c2ccc3[nH]c4c(c3c2)CCCCCC4)c1,?,?
Cc1ccc(CNC(=O)c2ccc3c(c2)c(C)c(C)n3Cc2ccccc2)o1,-11%,-51%
CC(=O)c1ccc(NC(=O)C2=CC(c3cccs3)=NS(=O)(=O)N2C)cc1,-21%,?
Cc1ccc(NC(=O)CSc2nc3ccccc3nc2Cc2ccccc2)c(C)c1,-2%,9.5µM*
CCN1C(=O)c2ccccc2Sc2ccc(NC(=O)Cc3ccc(OC)cc3)cc21,-10%,28%
CCS(=O)(=O)N1CCc2cc(C(=O)NC(C)c3ccccc3)ccc21 (centres undefined),-15%,-20%
COc1ccccc1[C@H](c1cccc2ccccc12)[C@@](C)(C#N)C(=O)N1CCC(c2cccc(C(F)(F)F)c2)CC1,-4%,/
COc1ccc(-c2nc3sc(CCNC(=O)C(=O)Nc4ccc(OC)c(OC)c4)c(C)n3n2)cc1,-9%,3%
CC1=C(/C=C/C(C)=C/C=C/C(C)=C/C(=O)O)C(C)(C)CCC1,-2%,/
COc1ccc(-c2nc3scc(CCNS(=O)(=O)c4ccc5c(c4)OCCO5)n3n2)cc1OC,9%,-17%
Cc1nnc(N2CCCC(C(=O)Nc3cccc(C(F)(F)F)c3)C2)c2nn(-c3ccccc3)c(C)c12 (centres undefined),?,?
Cc1ccc2nc(NCc3ccc(F)cc3)c3nncn3c2c1,-3%,-12%
Cc1cnc(=O)[nH]c1SCC(=O)Nc1cc(C(F)(F)F)ccc1Cl,0%,?
CN(C(=O)CSc1nc2ccc(NC(=O)COc3ccc(Cl)cc3)cc2s1)c1ccccc1,?,?
CCC(C)NC(=O)c1cnn(-c2cccc(F)c2)c1-n1cccc1 (centres undefined),?,-18%
CCc1nn2c(-c3ccccc3OC)ccnc2c1-c1ccccc1,-22%,?
CCCCSCCCNC(=O)c1cn(C)c2ccc(S(=O)(=O)N3CCCCCC3)cc2c1=O,-11%[11.5 µM],-5%
Cc1cc(NC(=O)c2ccc3c(c2)N(Cc2cccc(Cl)c2)C(=O)c2ccccc2S3=O)ccc1Br (centres undefined),-10%,-3%
Cc1ccc(Nc2cc(C)nc(-n3nc(C)cc3C)n2)cc1,?,?
Cc1cccc(C(=O)Nc2sc3c(c2C(=O)NC(C)C)CCCC3)c1,-21%,-7%
CCOc1ccccc1NC(=O)C1CCN(S(=O)(=O)c2ccc3[nH]c(=O)oc3c2)CC1,-12%,3%
COCCCNS(=O)(=O)c1cc(-c2onc(C)c2C)ccc1OC,6%,?
CCCCC(=O)Nc1cc(C)c(O)c(-c2nc3ncccc3o2)c1,-6%,22%
CCOCCc1nn2c(=O)cc(COC(=O)Cc3ccccc3)nc2s1,-2%,-10%
CCOC(=O)c1c(NC(=O)C2c3ccccc3Oc3ccccc32)sc(C)c1C,?,?
CCc1cccc(C)c1NC(=O)CCS(=O)(=O)c1cc(Br)cc2c1N(C(=O)C1CC1)CC2,-20%,-17%
CC(C)C(=O)NCC(c1ccc2c(c1)OCO2)N1CCN(c2ccccc2F)CC1 (centres undefined),-19%,10%
COc1ccc(C2CC(=O)c3cnc4c(-c5ccccc5)c(C)nn4c3C2)cc1OC (centres undefined),-28%,0%
Cc1ccccc1Cn1c(-c2cccs2)nc2ccccc21,-15%,14%
O=C(Cn1c(=O)c2sccc2n(CC(=O)Nc2ccc(Cl)cc2Cl)c1=O)NCCc1ccccc1,-13%,?
Cc1ccc(C)c(N2CCN(C(=O)C3CCCN(S(=O)(=O)c4cccc5nonc45)C3)CC2)c1 (centres undefined),?,?
CC(C)(C)C(=O)NCCc1nc2ccccc2n1CCCCOc1ccccc1,?,-24%
CCOc1ccc(NC(=O)CC2C(=O)N(c3ccc(OC)cc3)C(=O)N2C2CCCCC2)cc1 (centres undefined),-5%,?
Cc1ccc(C(=O)Nc2ccccc2)cc1S(=O)(=O)Nc1ccc(Br)cc1,?,-1%
CCOc1ccccc1N1CC(c2nc3ccccc3n2CCOc2ccc(C(C)(C)C)cc2)CC1=O (centres undefined),-5%,-21%

Ordered by number of heavy atoms (lowest first): some entries from above
compound,HTT prom inh,PMP22 txn prim
CC(NCc1ccc2c(c1)n(C)c(=O)n2C)c1ccccc1 (centres undefined),-13%,-10%
CN(C(=O)CSc1nc2ccc(NC(=O)COc3ccc(Cl)cc3)cc2s1)c1ccccc1,?,?
COc1ccccc1[C@H](c1cccc2ccccc12)[C@@](C)(C#N)C(=O)N1CCC(c2cccc(C(F)(F)F)c2)CC1,-4%,/

(more compounds)
compound,HTT prom inh,PMP22 txn prim
Cc1cc(C)c2c(=O)cc(C(=O)Nc3nc4ccc(F)cc4s3)oc2c1,17%,-4%
O=C(Nc1cccc(C(=O)OCc2cc(=O)n3c4c(sc3n2)CCCC4)c1)c1ccccc1,-8%,-9%
COc1ccc(NC(=O)COCc2cc(-c3cccs3)on2)cc1,-2%,6%
COc1cc2c(cc1OC)C(c1cc(OC)c(O)c(OC)c1)CC(=O)N2 (centres undefined),7%,-21%
Cc1cc(F)ccc1NC(=O)CN1C(=O)CCc2cc(S(=O)(=O)N3CCOCC3)ccc21,-12%,16%
Cc1cccc(N2CCN(S(=O)(=O)c3nnc(NC(=O)c4ccc(Cl)cc4)s3)CC2)c1,-11%,8%
COc1ccc(-c2cccc(NS(=O)(=O)c3cc(C)c(Cl)cc3C)c2)nn1,?,?
CCc1ccc(Oc2c(C(F)(F)F)oc3c(CN4CCCC(C)C4)c(O)ccc3c2=O)cc1 (centres undefined),-13%,-13%

Part of the list above, field by field.
CCOCCc1nn2c(=O)cc(COC(=O)Cc3ccccc3)nc2s1
  HTT prom inh: -2%	PMP22 txn prim: -10%

CCOC(=O)c1c(NC(=O)C2c3ccccc3Oc3ccccc32)sc(C)c1C
  HTT prom inh: ?	PMP22 txn prim: ?

CCc1cccc(C)c1NC(=O)CCS(=O)(=O)c1cc(Br)cc2c1N(C(=O)C1CC1)CC2
  HTT prom inh: -20%	PMP22 txn prim: -17%

CC(C)C(=O)NCC(c1ccc2c(c1)OCO2)N1CCN(c2ccccc2F)CC1 (centres undefined)
  HTT prom inh: -19%	PMP22 txn prim: 10%

Remaining list, next part.
compound,HTT prom inh,PMP22 txn prim
CC(=O)N1CCc2cc(Br)cc(S(=O)(=O)N3CCN(c4cccc(C)c4)C(C)C3)c21 (centres undefined),-1%,-20%
CN1C(=O)Cc2cc(S(=O)(=O)CCC(=O)N3CCN(c4ccc(Cl)cc4)CC3)ccc21,?,?
Cc1ccc(NC(=O)Nc2nnc(SCC(=O)N(C(C)C)C(C)C)s2)cc1,-34%,?
CCc1ccccc1NC(=O)Cn1c(C(=O)OC)cc2oc(C)cc21,-9%,3%
Cc1nn(-c2ccc(Cl)cc2)c2nc(-c3cccnc3)cc(C(F)(F)F)c12,-7%,-12%
CCn1ccc2cc(S(=O)(=O)N3CCC(C(=O)NCc4cccc(C)c4)CC3)ccc21,-29%,-4%
CCCCc1ccc(NC(=O)c2cc3c(=O)n4ccccc4nc3n2C)cc1,5%,-26%
Cc1ccccc1C(=O)Nc1nnc(S(=O)(=O)N(C)Cc2ccc(Cl)cc2)s1,-9%,-5%
Cc1cc(C)c2c(c1)c(C)cc1nnc(SCC(=O)c3ccccc3)n12,-3%,5%
Cc1cc(O)c(C(c2ccccc2)N2CCN(C)CC2)c(=O)n1Cc1ccco1 (centres undefined),-4%,-13%
O=C(C1CCC(Cn2c(=O)c3sccc3n(Cc3ccccc3)c2=O)CC1)N1CCCCC1 (centres undefined),-25%,9%
CCOC(=O)c1ccc(CN(Cc2ccc(F)cc2)S(=O)(=O)c2ccc(F)c(C(=O)Nc3ccccc3C(F)(F)F)c2)cc1,-23%,0%
COc1ccc(NC(=O)c2cc(C(C)=O)n3ccccc23)cc1Cl,9%,-10%
Cn1nc(C(=O)NCCc2ccc(Cl)cc2)c2c1-c1ccccc1SC2,-11%,-32%
Cc1cccc(-c2nnc(SCCC(=O)O)o2)c1,0.25µM*,-3%
COCCCn1c(=N)c(C(=O)NC2CCCCC2)cc2c(=O)n3cc(C)ccc3nc21,2%,-33%
COc1ccc(CN2C(=O)c3oc4ccccc4c(=O)c3C2c2ccc(O)cc2)cc1 (centres undefined),-4%,-4%
CN(C(=O)c1nn(C)c2c1COc1ccccc1-2)c1cccc(C(F)(F)F)c1,?,-16%
O=C(Cn1cc(S(=O)(=O)Cc2ccccc2Cl)c2ccccc21)NCc1ccccc1Cl,?,?
CCc1nnc(NC(=O)c2cc(=O)c3cc(C)ccc3o2)s1,4%[11.5 µM],-69%
CCc1ccc(NC(=O)CCc2nnc3n(C)c(=O)c4sccc4n23)cc1,-15%,7%
COc1ccc(C(=O)NC2(C(F)(F)F)C(=O)Nc3c2c(=O)[nH]c(=O)n3CCc2ccc(OC)c(OC)c2)cc1 (centres undefined),-5%,1%
CCN(C(=O)c1nn(C)c2c1CSc1ccccc1-2)c1cccc(C)c1,-15%,-18%
COc1ccccc1CCNC(=O)c1ccc(NC(=O)N2CC(C)Sc3ccccc32)cc1 (centres undefined),?,?
O=C(Nc1cccc(Cl)c1)c1cc2c(=O)[nH]c3ccccc3c2s1,-3%,?
COc1ccc(-c2nc3cc(C)ccn3c2NC(=O)c2ccc(C)c(C)c2)cc1,-3%,-10%
CCN1CCN(c2c(S(=O)(=O)c3ccc(Cl)cc3)cnc3ccccc23)CC1,-17%,?
Cc1cccc(-n2ccnc2SCC(=O)Nc2ccc(F)cc2F)c1C,?,-23%
Cc1ccc(C(=O)COC(=O)c2cc(-c3ccccc3)nc3ccccc23)cc1C,33%[activator],-6%
COc1ccc(-c2nc3c(c(SCC(=O)Nc4ccccc4OC)n2)Cc2cccc(C)c2O3)cc1,-5%,-20%
CCOc1cccc2sc(NC(=O)CS(=O)(=O)c3ccc(C)cc3)nc12,-14%,-24%
COc1ccc(OCc2nc(-c3ccc(OC)c(OC)c3)no2)cc1,-19%,-1%
COc1ccc(CCN2C(=O)N(c3ccc(F)cc3)C(=O)C2CC(=O)Nc2ccc(F)c(F)c2)cc1 (centres undefined),?,?
CCN(CC)CCCNC(=O)c1ccc2c(c1)sc1nc(-c3ccc(C)cc3)cn12,-3%,10µM*
CCC(=O)N1CCc2cc(S(=O)(=O)CCC(=O)N3CCN(c4cccc(Cl)c4)CC3)ccc21,?,?
COc1ccc(C(F)(F)F)cc1NC(=O)c1sc2nc(-c3cccs3)ccc2c1N,39%[activator],?
CCOC(=O)C1=C(CS(=O)(=O)c2ccc(F)c(C)c2)NC(=O)NC1c1ccccc1OC (centres undefined),-15%,-9%
CCN(CC)C(=O)Cn1c(=O)n(Cc2ccc(C(=O)NCCc3ccc(OC)c(OC)c3)cc2)c(=O)c2ccccc21,3%,7%
CCN1CCOC(=O)C1CC(=O)Nc1cc(C)cc(C)c1 (centres undefined),0%,?
O=C(OCc1cc(=O)n2c3c(sc2n1)CCCC3)c1cccc(NC(=O)c2ccccc2F)c1,?,-56%
Nc1c(C(=O)Nc2cccc(F)c2)sc2nc(-c3cccs3)ccc12,14%,?
Cc1cccc(C(=O)NC2(C(F)(F)F)N=C(c3ccccc3)N(Cc3ccccc3)C2=O)c1 (centres undefined),-1%,-34%
CCc1ccccc1NC(=O)Cc1ccc(-n2c(C)nc3cccnc32)cc1,-24%,-8%
Cc1cc(C)cc(C(=O)n2nc(C)c(S(=O)(=O)N3CCOCC3)c2C)c1,0%,-33%
COc1ccc(OC)c(NC(=O)c2ccc(-c3nc(CSc4ccccc4)c(C)o3)cc2)c1,?,-100%
Cc1cc(C)cc(-n2c(SCC(=O)Nc3ccc4c(c3)OCCO4)nc3c([nH]c4ccccc43)c2=O)c1,-19%,-15%
COc1ccc(NC(=O)C2CCN(S(=O)(=O)c3ccc4c(c3)CCCC(=O)N4)CC2)cc1Cl,-21%,-18%
CCC(CC)[C@H](NC(C)=O)[C@@H]1[C@H](O)[C@@H](C(=O)O)C[C@@H]1N=C(N)N,6%,/
